A1 apoptosis 2 = blocks A1, raising caspase activity; 24,000 tested, under 10 active; caspase activation, % (test concentration not listed); MEF A1-2A-BIM cells, caspase-Glo luminescence, 3 h; percent of clofoctol response, DMSO zero; AID 2465; in the data active means caspase activation above about 5.9%;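 further: wells of about 30 µL received 50 nL stock; the first replicate is given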
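system = A1-2A-BIM-expressing MEF cells | quantity = 2500 MEF cells/well | dosing = 50 nL compound per well, pinned | schedule = overnight cell settling, then 3 h compound exposure, 37 °C | signal = luminescence from DEVD-luciferin Caspase-Glo reagent, 1:1 in 50 mM HEPES, 1 h RT | read-out = Caspase-3/7 activation, seen as rise in luminescence signal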
* hit, by the source's call.

SMILES | A1 apoptosis 2
C[C@H]1CCCCO[C@H](CN(C)S(=O)(=O)c2ccc(F)cc2)[C@@H](C)CN([C@@H](C)CO)C(=O)c2cc(NC(=O)CCC(F)(F)F)ccc2O1 | 1.7
COc1ccc(S(=O)(=O)N(C)C[C@@H]2Oc3c(NC(=O)Nc4ccc5c(c4)OCO5)cccc3C(=O)N([C@H](C)CO)C[C@@H]2C)cc1 | 0.3
COc1ccc(NC(=O)Nc2cccc3c2O[C@H](CN(C)Cc2ccncc2)[C@@H](C)CN([C@@H](C)CO)C3=O)cc1 | -0.8
C[C@@H]1CN([C@@H](C)CO)C(=O)c2cccc(NC(=O)c3cnccn3)c2O[C@H]1CN(C)CC1CC1 | -0.3
C[C@@H]1CN([C@@H](C)CO)C(=O)c2cc(NS(C)(=O)=O)ccc2O[C@@H](C)CCCCO[C@@H]1CN(C)C(=O)c1ccncc1 | -0.2
C[C@@H]1CCCCO[C@@H](CN(C)S(=O)(=O)c2ccc(F)cc2)[C@@H](C)CN([C@@H](C)CO)C(=O)c2cc(NS(=O)(=O)c3ccc(Cl)cc3)ccc2O1 | 0.3
Cc1noc(C)c1NC(=O)Nc1ccc2c(c1)CC(=O)N([C@@H](C)CO)C[C@H](C)[C@@H](CN(C)C(=O)Nc1cccc3ccccc13)O2 | 0.5
C[C@@H]1CCCCO[C@@H](CN(C)S(=O)(=O)c2cn(C)cn2)[C@@H](C)CN([C@@H](C)CO)C(=O)c2cc(NC(=O)Cc3ccccc3)ccc2O1 | 0.5
C[C@@H]1CN([C@H](C)CO)C(=O)c2cc(NS(=O)(=O)c3ccccc3)ccc2O[C@H]1CN(C)Cc1ccc(-c2ccccc2)cc1 | -2.0
C[C@@H]1CN([C@H](C)CO)C(=O)c2cc(NC(=O)Cc3ccccc3)ccc2O[C@@H](C)CCCCO[C@H]1CN(C)S(=O)(=O)c1ccccc1 | -0.5
C[C@@H]1CN([C@H](C)CO)C(=O)c2cc(NS(=O)(=O)c3ccc(F)cc3)ccc2O[C@@H]1CN(C)S(C)(=O)=O | -0.1
C[C@H]1CN([C@@H](C)CO)C(=O)c2cccc(NC(=O)C3CCCCC3)c2O[C@H]1CN(C)S(=O)(=O)c1cccs1 | -0.8
C[C@H](CO)N1C[C@H](C)[C@@H](CN(C)S(=O)(=O)c2cccc(C#N)c2)OCc2cnnn2CCCC1=O | 0.1
COc1ccc(-c2cnc3c(c2)C(=O)N([C@H](C)CO)C[C@H](C)[C@H](CN(C)Cc2ccc4c(c2)OCO4)O3)cc1 | 1.6
C[C@H](CO)N1C[C@H](C)[C@H](CN(C)Cc2ccc(C(F)(F)F)cc2)Oc2ccc(NC(=O)Nc3ccc4c(c3)OCO4)cc2CC1=O | -0.6
CN(Cc1ccccc1)CC1CC(c2ccccc2)OC(c2ccc(NC(=O)CCCCCCC(=O)O)cc2)O1 (stereo unspecified) | 0.5
C[C@H](CO)N1C[C@H](C)[C@@H](CN(C)C(=O)Nc2ccc(C(F)(F)F)cc2)Oc2c(NS(=O)(=O)c3ccccc3)cccc2C1=O | 0.8
COc1ccc(S(=O)(=O)Nc2ccc3c(c2)CC(=O)N([C@H](C)CO)C[C@@H](C)[C@H](CN(C)C(=O)Nc2ccc(F)cc2)O3)cc1 | 0.9
Cc1noc(C)c1NC(=O)N(C)C[C@H]1OCCCC[C@@H](C)Oc2ccc(N(C)C)cc2C(=O)N([C@H](C)CO)C[C@H]1C | 0.0
C[C@H](CO)N1C[C@H](C)[C@H](CN(C)Cc2ccncc2)Oc2ccc(NS(=O)(=O)c3cn(C)cn3)cc2CC1=O | 0.0
C[C@H]1CN([C@@H](C)CO)C(=O)c2cccc(NC(=O)Nc3ccc(F)cc3)c2O[C@H]1CN(C)Cc1ccc(C(F)(F)F)cc1 | 1.9
C[C@@H]1CCCCO[C@@H](CN(C)Cc2ccncc2)[C@H](C)CN([C@H](C)CO)C(=O)c2cc(N(C)C)ccc2O1 | 0.2
CC(C)NC(=O)Nc1ccc2c(c1)C(=O)N([C@H](C)CO)C[C@@H](C)[C@H](CN(C)Cc1ccc(C(F)(F)F)cc1)OCCCC[C@H](C)O2 | 1.8
C[C@@H]1CN([C@@H](C)CO)C(=O)c2cccc(NC(=O)c3nc4ccccc4s3)c2O[C@H]1CN(C)C(=O)Nc1ccccc1 | 0.8
Cc1ccc(S(=O)(=O)Nc2cccc3c2O[C@@H](CN(C)S(=O)(=O)c2cn(C)cn2)[C@@H](C)CN([C@H](C)CO)C3=O)cc1 | 0.1

In the list so far, four contain two or more sulfur atoms:
SMILES | A1 apoptosis 2
C[C@@H]1CCCCO[C@@H](CN(C)S(=O)(=O)c2ccc(F)cc2)[C@@H](C)CN([C@@H](C)CO)C(=O)c2cc(NS(=O)(=O)c3ccc(Cl)cc3)ccc2O1 | 0.3
C[C@@H]1CN([C@H](C)CO)C(=O)c2cc(NS(=O)(=O)c3ccc(F)cc3)ccc2O[C@@H]1CN(C)S(C)(=O)=O | -0.1
C[C@H]1CN([C@@H](C)CO)C(=O)c2cccc(NC(=O)C3CCCCC3)c2O[C@H]1CN(C)S(=O)(=O)c1cccs1 | -0.8
Cc1ccc(S(=O)(=O)Nc2cccc3c2O[C@@H](CN(C)S(=O)(=O)c2cn(C)cn2)[C@@H](C)CN([C@H](C)CO)C3=O)cc1 | 0.1

Next structures.
SMILES | A1 apoptosis 2
Cc1noc(C)c1NC(=O)Nc1ccc2c(c1)C(=O)N([C@@H](C)CO)C[C@H](C)[C@@H](CN(C)CC1CCCCC1)OCCCC[C@H](C)O2 | -1.0
COc1ccc(NC(=O)N(C)C[C@H]2Oc3c(NC(=O)Nc4ccc5c(c4)OCO5)cccc3C(=O)N([C@H](C)CO)C[C@@H]2C)cc1 | -0.9
C[C@H](CO)N1C[C@H](C)[C@@H](CN(C)C(=O)Nc2ccc(C(F)(F)F)cc2)Oc2ccc(NC(=O)C3CCCCC3)cc2C1=O | 1.5
O=C(NO)c1cccc(C(=O)N/N=C/c2cc(Br)cc([N+](=O)[O-])c2O)c1 | 1.3
C[C@@H]1CN([C@@H](C)CO)C(=O)c2cccc(NS(C)(=O)=O)c2O[C@H]1CN(C)Cc1ccc(Oc2ccccc2)cc1 | -0.1
O=C1O[C@H](c2ccccc2)[C@H](c2ccccc2)N2[C@H]1[C@@H](C(=O)N1CCCCCCC1)[C@]1(C(=O)Nc3ccc(C#CC4(O)CCCCCC4)cc31)[C@H]2c1ccccc1OCCO | -0.3
C[C@H](CO)N1C[C@H](C)[C@@H](CN(C)Cc2ccc(Cl)c(Cl)c2)Oc2c(NC(=O)Nc3cccc4ccccc34)cccc2C1=O | -1.6
CNC[C@H]1Oc2ccc(NS(=O)(=O)c3ccc(C)cc3)cc2CC(=O)N([C@@H](C)CO)C[C@H]1C | -0.3
C[C@@H]1CN([C@H](C)CO)C(=O)c2cccc(NC(=O)Nc3ccc(F)cc3)c2O[C@@H]1CN(C)C(=O)NC1CCCCC1 | -1.4
C[C@@H]1CN([C@@H](C)CO)C(=O)Cc2cc(NC(=O)Cc3ccccc3)ccc2O[C@@H]1CN(C)C(=O)NC1CCCCC1 | 0.6
COc1ccc(S(=O)(=O)N(C)C[C@@H]2Oc3c(NC(=O)Nc4ccc(F)cc4)cccc3C(=O)N([C@@H](C)CO)C[C@H]2C)cc1 | 0.6
C[C@@H]1CCCCO[C@@H](CN(C)Cc2ccc(C(=O)O)cc2)[C@@H](C)CN([C@H](C)CO)C(=O)c2cc(NS(=O)(=O)c3cccs3)ccc2O1 | 1.1
C[C@H]1CN([C@@H](C)CO)C(=O)Cc2cc(NC(=O)Nc3ccc4c(c3)OCO4)ccc2O[C@@H]1CN(C)S(=O)(=O)c1cccs1 | -0.6
COc1ccc(CN(C)C[C@H]2Oc3ccc(NS(=O)(=O)c4ccc(F)cc4)cc3CC(=O)N([C@H](C)CO)C[C@@H]2C)cc1 | -0.7
C[C@H](CO)N1C[C@H](C)[C@H](CN(C)S(=O)(=O)c2ccc(F)cc2)OCCCC[C@H](C)Oc2ccc(NC(=O)CCCN(C)C)cc2C1=O | -1.8
COc1ccc(S(=O)(=O)N(C)C[C@H]2OCCCC[C@@H](C)Oc3ccc(NS(=O)(=O)c4cn(C)cn4)cc3C(=O)N([C@H](C)CO)C[C@@H]2C)cc1 | 0.4
COc1ccc(S(=O)(=O)Nc2cccc3c2O[C@@H](CN(C)S(=O)(=O)c2ccc(OC)cc2)[C@@H](C)CN([C@H](C)CO)C3=O)cc1 | -0.3
C[C@@H]1CN([C@@H](C)CO)C(=O)c2cccc(NC(=O)c3nc4ccccc4s3)c2O[C@H]1CN(C)S(=O)(=O)c1ccc(F)cc1 | -0.6
C[C@H](CO)N1C[C@H](C)[C@@H](CN(C)C(=O)Nc2ccccc2)Oc2c(NC(=O)NC3CCCCC3)cccc2C1=O | 0.7
C[C@H]1CN([C@@H](C)CO)C(=O)c2cccc(NC(=O)C3CCOCC3)c2O[C@H]1CN(C)Cc1ccccc1 | 0.1
Cc1nc(S(=O)(=O)N[C@@H]2CCN(Cc3cccc(OCCO)c3)C2)cn1C | -0.2
Cc1noc(C)c1NC(=O)N(C)C[C@H]1Oc2c(NC(=O)C3CCOCC3)cccc2C(=O)N([C@@H](C)CO)C[C@H]1C | 0.0
COc1ccc(CN(C)C[C@H]2Oc3c(NC(=O)C4CC4)cccc3C(=O)N([C@@H](C)CO)C[C@@H]2C)cc1 | 0.0
C[C@@H]1CN([C@@H](C)CO)C(=O)c2cc(NS(=O)(=O)c3ccc(F)cc3)ccc2O[C@H]1CN(C)S(C)(=O)=O | 1.6
C[C@H](CO)N1C[C@H](C)[C@H](CN(C)S(=O)(=O)c2ccc(F)cc2)Oc2c(NC(=O)Nc3cccc4ccccc34)cccc2C1=O | -0.4

An excerpt from above in order of count of non-hydrogen atoms, low to high.
SMILES | A1 apoptosis 2
C[C@@H]1CN([C@@H](C)CO)C(=O)c2cccc(NS(C)(=O)=O)c2O[C@H]1CN(C)Cc1ccc(Oc2ccccc2)cc1 | -0.1
C[C@@H]1CN([C@@H](C)CO)C(=O)Cc2cc(NC(=O)Cc3ccccc3)ccc2O[C@@H]1CN(C)C(=O)NC1CCCCC1 | 0.6
COc1ccc(NC(=O)N(C)C[C@H]2Oc3c(NC(=O)Nc4ccc5c(c4)OCO5)cccc3C(=O)N([C@H](C)CO)C[C@@H]2C)cc1 | -0.9

Next part
SMILES | A1 apoptosis 2
C[C@@H]1CN([C@H](C)CO)C(=O)c2cc(NC(=O)c3ccccc3)ccc2O[C@@H](C)CCCCO[C@H]1CN(C)C(=O)Cc1ccccc1 | 1.0
C[C@H](CO)N1C[C@H](C)[C@H](CN(C)CC2CCCCC2)Oc2c(NS(=O)(=O)c3ccccc3)cccc2C1=O | 0.8
C[C@@H]1CN([C@@H](C)CO)C(=O)c2cc(NC(=O)C3CCCCC3)ccc2O[C@@H]1CN(C)C(=O)Nc1cccc2ccccc12 | -0.7
CC(C)NC(=O)Nc1ccc2c(c1)C(=O)N([C@@H](C)CO)C[C@H](C)[C@H](CN(C)C(=O)c1ccncc1)OCCCC[C@H](C)O2 | 0.3
C[C@H](CO)N1C[C@H](C)[C@@H](CN(C)C(=O)Nc2ccccc2)OCCCC[C@H](C)Oc2ccc(NC(=O)C3CCCCC3)cc2C1=O | 0.6
COc1ccc(S(=O)(=O)Nc2cccc3c2O[C@H](CN(C)C(=O)Nc2ccc(F)cc2)[C@@H](C)CN([C@@H](C)CO)C3=O)cc1 | -0.3
C[C@@H]1CN([C@@H](C)CO)C(=O)Cc2cc(NC(=O)Nc3cccc4ccccc34)ccc2O[C@@H]1CN(C)CC1CC1 | -0.3
COc1ccc(S(=O)(=O)N(C)C[C@H]2Oc3c(NC(=O)C4CC4)cccc3C(=O)N([C@H](C)CO)C[C@H]2C)cc1 | -2.6
C[C@@H]1CN([C@H](C)CO)C(=O)Cc2cc(NS(=O)(=O)c3ccccc3)ccc2O[C@H]1CN(C)C(=O)Nc1ccc2c(c1)OCO2 | -1.5
C[C@@H]1CN([C@@H](C)CO)C(=O)Cc2cc(NC(=O)CCCCCC(=O)Nc3ccccc3N)ccc2O[C@@H]1CN(C)S(=O)(=O)c1cccs1 | 0.5
C[C@H]1CN([C@@H](C)CO)C(=O)c2cc(NC(=O)CCCCCC(=O)Nc3ccccc3N)ccc2O[C@H]1CN(C)Cc1ccc2c(c1)OCO2 | -0.1
COc1ccc(S(=O)(=O)Nc2ccc3c(c2)C(=O)N([C@H](C)CO)C[C@H](C)[C@H](CN(C)Cc2ccc(Cl)c(Cl)c2)OCCCC[C@H](C)O3)cc1 | -1.3
C[C@H]1CN([C@@H](C)CO)C(=O)Cc2cc(NC(=O)Nc3cccc4ccccc34)ccc2O[C@H]1CN(C)S(=O)(=O)c1ccc(Cl)cc1 | 0.1
Cc1ccc(S(=O)(=O)Nc2ccc3c(c2)C(=O)N([C@@H](C)CO)C[C@H](C)[C@H](CN(C)C(=O)C2CCCCC2)OCCCC[C@H](C)O3)cc1 | 0.0
C[C@H](CO)N1C[C@H](C)[C@H](CN(C)C(=O)Nc2ccc(F)cc2)Oc2ccc(NC(=O)Nc3ccc(F)cc3)cc2C1=O | -0.2
C[C@H]1CCCCO[C@@H](CN(C)C(=O)Nc2cccc3ccccc23)[C@@H](C)CN([C@@H](C)CO)C(=O)c2cc(NC(=O)c3ccncc3)ccc2O1 | 0.3
C[C@@H]1CCCCO[C@@H](CN(C)C)[C@@H](C)CN([C@H](C)CO)C(=O)c2cc(NC(=O)c3ccccc3)ccc2O1 | 0.4
CC(C)NC(=O)N(C)C[C@@H]1Oc2ccc(NC(=O)C3CCCCC3)cc2CC(=O)N([C@H](C)CO)C[C@@H]1C | -0.5
Cc1noc(C)c1NC(=O)N(C)C[C@H]1Oc2c(NC(=O)c3ccc(-c4nccs4)cc3)cccc2C(=O)N([C@@H](C)CO)C[C@H]1C | -0.9

These rows are one share of the data, so the mix of outcomes need not match the whole.
